# ALR H2O2 inh: inhibitors of human ALR sulfhydryl oxidase, primary screen, biochemical, H2O2 detection, HRP-luminol luminescence, single point; AID 485317, 2010; purified ALR, DTT oxidation; FAD-linked sulfhydryl oxidase ALR (Homo sapiens), P55789; inhibition, % (test concentration not listed); 3.8% of 290,000 active;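 active = mean and each replicate at 75% or more; inconclusive = only one of the two met; inactive = neither met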;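 also: stock transfer was 7.5 nL into about 7.5 µL; 0% = neutral wells and 100% = wells with inactivated enzyme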
# Target sequence (P55789 whole entry, looked up): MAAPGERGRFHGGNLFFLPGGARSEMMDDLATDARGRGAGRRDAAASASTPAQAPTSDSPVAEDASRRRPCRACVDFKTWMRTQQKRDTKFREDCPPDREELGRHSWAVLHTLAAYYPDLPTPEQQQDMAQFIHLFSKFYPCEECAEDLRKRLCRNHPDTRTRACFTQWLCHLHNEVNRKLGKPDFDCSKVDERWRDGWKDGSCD
# Bfl-1 A1 inh: caspase 3/7 activation in MEF A1-2A-BIM cells, primary screen, A1 inhibitor project, cell-based, luminescence, HTS. 0.066% of 330,000 active. AID 2462, 2010. caspase activation, % (concentration not given with the values). Caspase-Glo 3/7 luminescence, 3 h; percent of clofoctol response, vehicle zero;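 active = over half of replicate activation scores above 10%, or exactly half above 10 with the replicate mean above 10; inconclusive = replicate mean below 10 yet half the replicates above 10; inactive = over half of replicates below 10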;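 also: wells of about 30 µL received 50 nL stock; many hits fall short of the cut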
# Ecoli rRNA inh: reduced GFP signal of wild-type E. coli, primary screen, bacterial rRNA inhibitor project, GFP/RFP fluorescence, OD600, single point | E. coli WT GFP vs humanized-ribosome RFP mutants, 24 h; active compounds read low; DMSO median 0, no signal -100 | GFP signal change (wild-type ribosome), % (no concentration beside the values) | 1.6% of 350,000 active;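 active = significant combined selectivity score with lowered wild-type GFP, culture density cut under 30%, mutant RFP and density less affected; inactive = any of these conditions unmet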; also: one replicate is shown; some compounds called inactive have numbers as strong as hits
# Beta cell apopt: inhibitors of cytokine-induced beta cell apoptosis, primary screen, luminescence; 0.8% of 300,000 active; protection from apoptosis, % (test concentration not listed); INS-1E cytokine-induced death, ATP luminescence, 48 h; percent of positive-control rescue, neutral wells zero;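 active = all replicates at 75% or more, or half of them and the mean; inconclusive = half reach 75% but not the mean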;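 also: 0% = cytokine-treated negative control wells and 100% = positive control rescue; higher means more ATP so stronger rescue from cytokine killing; wells of about 40 µL received 100 nL stock; the first replicate is given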
# LANA-H2A inh: blockers of LANA interaction with H2A/H2B – biochemical, FP readout, HTS, primary screen; AID 2629, 2010; inhibition, % (test concentration not listed); Protein LANA1 (Human herpesvirus 8 type P (isolate GK18)), Q9QR71; 0.6% of 320,000 active; cell-free LANA-H2A/H2B peptide, fluorescence polarization; in the data active = inhibition mostly above about 10%, no sharp cut-off; inactive = mostly below about 6.7%;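 also: stock transfer was 7.5 nL into about 10 µL; 0% = median of vehicle wells and 100% = median of positive control wells; one replicate is shown; the record names a cut of 25% in any replicate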
# B2AR ag: beta2AR agonists driving receptor internalization, primary screen, cell-based, FAP fluorogen, flow cytometry; Am2.2-beta2AR cells; reference of the scale not given here; response, % (concentration not given with the values); 0.43% of 340,000 active; AID 504454, 2011;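 active = response above a set limit, near 3 SD of response in nonfluorescent compounds, cut at about 42% in these data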;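 also: stock transfer was 100 nL into about 11 µL; a reference agonist was the positive control; negative values mostly stem from fluorescent compounds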
# Target sequence (P07550 whole entry, looked up): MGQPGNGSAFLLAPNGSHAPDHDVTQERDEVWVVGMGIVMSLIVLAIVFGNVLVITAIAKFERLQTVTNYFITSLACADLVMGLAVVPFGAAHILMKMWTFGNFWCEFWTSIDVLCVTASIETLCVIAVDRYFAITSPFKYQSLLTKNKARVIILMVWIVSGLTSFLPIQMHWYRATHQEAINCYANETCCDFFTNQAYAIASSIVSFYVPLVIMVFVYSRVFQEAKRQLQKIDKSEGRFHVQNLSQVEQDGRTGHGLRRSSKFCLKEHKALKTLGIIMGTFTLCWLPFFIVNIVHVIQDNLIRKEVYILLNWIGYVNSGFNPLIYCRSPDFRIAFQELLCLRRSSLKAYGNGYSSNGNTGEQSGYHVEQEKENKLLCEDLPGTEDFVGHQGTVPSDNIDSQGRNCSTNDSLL
# Calb FLC: C. albicans growth inhibition with fluconazole, primary screen, CaCi-2 strain, Alamar Blue fluorescence. C. albicans CaCi-2 (fluconazole-resistant clinical isolate) + fluconazole, 48 h. growth inhibition, % (concentration not given with the values). 0.57% of 300,000 active;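 active = most replicates above 75%; inconclusive = exactly half above 75%; inactive = most below 75%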;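 also: all wells also contain fluconazole at 8 µg/ml as a sub-toxic cotreatment; 0% = median of DMSO wells and 100% = median of geldanamycin control wells; wells of about 8 µL received 7.5 nL stock; the first replicate is given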
# T cruzi inh: inhibitors of intracellular T. cruzi growth, primary screen, luminescence, NIH3T3 host cells. T. cruzi beta-gal in NIH3T3, 90 h. inhibition, % (concentration not given with the values). 1.4% of 300,000 active;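 active = mean inhibition across valid replicates above about 55%, limit read from the data; inconclusive = mean below that limit but half or more replicates reach it; inactive = mean below it, under half of replicates reach it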;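 also: signal also drops with host cell toxicity which is not excluded here; 0% = plate median of DMSO wells and 100% = zero luminescence signal; higher percent means less beta-gal luminescence so fewer parasites; stock transfer was 50 nL into about 50 µL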
# Ecoli rRNA inh OD600: further read-out of Ecoli rRNA inh, marked with its call; OD600 change, %; measured here: OD600 growth;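 optical density of the mix in the first replicate; 0 = DMSO median and -100 = no signal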
# Ecoli rRNA inh RFP: further read-out of Ecoli rRNA inh, marked with its call; RFP signal change, %; measured here: RFP humanized mutant strains;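 first replicate; 0 = DMSO median and -100 = no signal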
# Starred values were filed as active, the others as inactive; ? = inconclusive; nt = no result given.
SMILES,ALR H2O2 inh,Bfl-1 A1 inh,Ecoli rRNA inh,Ecoli rRNA inh OD600,Ecoli rRNA inh RFP,Beta cell apopt,LANA-H2A inh,B2AR ag,Calb FLC,T cruzi inh
COC(CNC(=O)c1ccc2nc(-c3cccs3)c(-c3cccs3)nc2c1)OC,3,1.1,-22*,-17*,2.0*,-2,-2.5,-1,47,14
CC(C)C(NS(=O)(=O)c1cc(C(=O)O)ccc1Cl)C(=O)O (configuration not stated),1,0.3,6,-5,-2.9,-4,4.8,-7,-29,-14
Cc1ccc(/C=C/C(=O)NCCc2cccc(Cl)c2)o1,11,2.2,3,1,3.4,-4,2.6,13,1,1
CC1CCCN(S(=O)(=O)c2ccc(Cl)s2)C1 (configuration not stated),-6,1.0,8,9,-0.1,0,-0.7,4,-8,33
CCCCOc1ccc(C(=O)NCC(=O)NCCOc2ccc(C)cc2)cc1,-6,-0.5,6,13,0.9,-1,2.2,-7,nt,nt
CCn1cc(C(=O)N[C@@H](C)C(=O)NCCO)c(=O)c2cc3c(cc21)OCO3,nt,-0.9,0,-2,-1.6,-5,0.6,-8,-11,-21
COc1ccc(Cl)cc1NC(=O)c1cnc2n(c1=O)CCS2,2,0.0,0,2,-2.1,1,1.0,-8,2,1
CC(C)(C)SCCNC(=O)/C=C/c1ccccc1,0,-0.4,5,0,6.0,-7,2.9,4,10,-8
CCCC12CN3CC(CCC)(CN(C1)C3c1ccco1)C2=O (configuration not stated),nt,-0.5,1,5,1.7,-10,-6.8,3,0,1
CCOc1ccc2oc(C(=O)NCc3ccccc3CN3CCCC3)c(C)c2c1,-6,0.0,nt,nt,nt,-6,-0.6,2,nt,nt
CCSc1ccc(-c2cccc([N+](=O)[O-])c2)nn1,-3,-2.4,2,1,-1.9,7,2.3,-4,-14,1
COc1ccc(O)c(-c2c(-c3ccc(Cl)cc3)n[nH]c2C)c1,28,0.8,nt,nt,nt,-2,-5.3,-4,nt,5
CC(C)(C)C(=O)Oc1ccc2cc(-c3ccc4ccccc4n3)c(=O)oc2c1,-5,-5.6,3,-2,6.6,5,2.3,0,-19,-32
CC(C)N(C(=O)Cn1cc(S(=O)(=O)CC(=O)Nc2ccccc2)c2ccccc21)C(C)C,1,-0.1,3,6,-1.3,5,-5.3,5,-1,10
COc1ccccc1NC(=O)CCN1C(=O)c2ccccc2C1=O,-17,1.2,8,1,-1.5,1,0.9,-1,-6,-10
Cc1ccc(S(=O)(=O)Nc2ccc(N(C)C)cc2)cc1,99*,-0.2,-13,-8,0.7,1,-0.7,2,-5,?
O=C(NCCCn1ccnc1)C(=O)c1c[nH]c2ccccc12,nt,0.0,12,0,-0.9,-11,-5.8,0,-5,-3
O=C(c1nnc(Cc2ccc(Cl)cc2)o1)N1CCc2ccccc2C1,nt,0.4,-24,-51,2.1,-4,8.5,4,-7,-3
COc1ccc(-c2nc3ccc([N+](=O)[O-])cc3[nH]2)cc1,nt,-6.1,-14,0,-6.3,-5,2.4,11,-23,-34
Cc1onc(-c2c(Cl)cccc2Cl)c1C(=O)c1c[nH]c(C(=O)NCCCN2CCOCC2)c1,1,0.6,nt,nt,nt,2,2.6,6,59,-1
Cc1ccc(S(=O)(=O)c2c(COC(=O)c3ccccc3Cl)c(-c3ccccc3)nn2C)cc1,-2,1.0,nt,nt,nt,-6,1.6,2,-10,26
c1ccc(-c2noc(CN3CCN(c4ccccc4)CC3)n2)cc1,82*,-0.2,-12,-19,-2.7,0,-2.8,1,-8,-18
Cc1ccc(-c2nc(CS(=O)CC(=O)NCCN3CCOCC3)c(C)o2)cc1 (configuration not stated),99*,nt,nt,nt,nt,-6,-0.2,-2,-8,-13
C#CC(C)OC(=O)C(C)NC(=O)c1ccccc1 (configuration not stated),-6,0.1,7,6,-2.2,-16,0.7,-1,18,-19
Cc1ccc2c(c1)CCCN2CC(=O)Nc1cccc(S(=O)(=O)N2CCCC2)c1,-4,-0.1,-2,9,3.8,0,6.2,15,nt,nt
Cc1ccnc2nc(C(=O)OCC(=O)NCCc3ccc(Cl)cc3)nn12,nt,0.7,nt,nt,nt,1,nt,3,0,-11
COc1ccc(C2(C(=O)Nc3ccc(S(=O)(=O)Nc4nc(C)cc(C)n4)cc3)CCCC2)cc1OC,-7,-0.9,nt,nt,nt,1,-1.2,-1,-4,6
CC(C(=O)O)N1C(=O)C2C3c4ccccc4C(c4ccccc43)[C@@H]2C1=O (some centres not stated),-10,0.9,9,12,0.5,-9,6.7,-3,-9,1
O=C(Nc1cccnc1)c1ccccc1Oc1ccccc1,-5,-0.2,nt,nt,nt,-3,4.7,-8,-17,2
CC(C)CCNC(=O)C1CCN(c2nc3ccccc3o2)CC1,-3,-0.8,nt,nt,nt,2,0.6,-9,-14,3
COc1ccc(N=Nc2ccc3ccccc3c2)c(O)c1,nt,-10,14,11,6.0,-6,1.1,-15,12,-9
COc1ccc(NC(=O)c2ccc(-n3cccn3)nc2)cc1,-7,-1.1,nt,nt,nt,-3,8.8,-17,23,-22
Cc1noc(C)c1COC(=O)c1cccc(S(=O)(=O)N2c3ccccc3CC2C)c1 (configuration not stated),-8,0.1,-18,-32,-3.9,-3,-2.0,0,-4,21
COCCNC(=O)c1c(N)n(/N=C/c2cccs2)c2nc3ccccc3nc12,-4,-0.9,nt,nt,nt,3,1.0,13,-6,32
Cc1ccc2cc(S(=O)(=O)NCCCN3CCOCC3)ccc2c1,1,-1.0,-5,-2,-0.2,nt,-2.1,-7,-9,19
COC(=O)c1cn(NC(=O)COc2ccc(Cl)cc2)c(=O)c2ccccc12,-9,0.0,nt,nt,nt,-5,-8.7,0,2,nt
O=C(NCCCO)c1nc2ccccc2s1,-2,0.1,nt,nt,nt,-4,3.2,-1,-5,-4
CCN1CCN(c2c(Cl)cccc2NC(=O)c2ccc([N+](=O)[O-])o2)CC1,nt,1.5,-17*,3.0*,1.3*,103*,5.8,-11,16,30
COc1cccc(S(=O)(=O)NCc2ccc(C(=O)NCc3ccco3)cc2)c1,-3,0.5,nt,nt,nt,-8,1.7,7,25,2
CN(C)CCCNC(=S)N(CCO)Cc1cc2cc3c(cc2[nH]c1=O)OCO3,-2,-0.1,12,18,3.7,2,-2.5,3,5,-22
CC(OC(=O)CCCOc1ccccc1)C(=O)Nc1ccc(Cl)cn1 (configuration not stated),-1,1.4,-14,-13,1.0,-2,0.9,-8,-1,-12
COCCNC(=O)C(c1ccc(C)cc1)N(C(=O)C(=O)NC1CCCC1)c1ccc2c(c1)OCCO2 (configuration not stated),-13,-0.1,7,7,-1.0,2,2.9,-6,15,7
O=C(NCc1ccncc1)Nc1ccc(F)cc1,-1,-0.1,nt,nt,nt,-2,8.7,5,-7,-2
Nc1nc(CN2CCN(C(=O)c3ccco3)CC2)nc(Nc2cccc(Cl)c2)n1,95*,0.1,-7,-2,3.4,-4,0.2,-6,-6,nt
N#C/C(=C(/O)COC(=O)c1ccc(C#N)cc1)c1nc2ccccc2s1,4,-0.2,-9,3,2.7,0,0.7,-5,16,2
CN(CC(=O)Nc1sccc1C#N)C1CCCCC1,2,-0.8,nt,nt,nt,-2,-3.5,-1,5,8
COc1ccc(NC2=C(C(C)=O)C(c3ccc(N(C)C)cc3)C(C(C)=O)C(C)(O)C2)cc1 (configuration not stated),91*,-0.6,-4,6,0.7,0,0.7,0,6,-6
COc1ccc(/C=N/NC(=O)CNc2c(Br)cc(C)cc2Br)c(C(=O)O)c1OC,2,0.5,nt,nt,nt,-2,-8.7,-9,-2,3
O=C(Nc1c(Cl)ccc2nsnc12)c1ccco1,-19,-0.2,14,6,1.5,-13,4.0,4,20,-14
Cc1ccccc1NS(=O)(=O)c1ccc2[nH]cc(C(=O)NCCCN3CCOCC3)c(=O)c2c1,-2,1.3,nt,nt,nt,-10,-0.6,-4,2,6
CCOC(=O)N1CCN(Cc2c(NC(=O)c3ccco3)sc(C)c2C)CC1,-4,0.2,11,4,-1.2,0,1.5,-8,-4,24
Cc1ccc(S(=O)(=O)N2CCCCC2)cc1NC(=O)CSc1nc(N)cc(=O)[nH]1,-8,-0.2,4,15,-0.9,-3,0.1,-3,nt,nt
O=C1CCCC2=C1Sc1ccc(Cl)cc1N2,nt,0.6,-7,-3,0.5,nt,12,8,-20,-12
O=c1c2ccccc2[nH]c(=S)n1CCN1CCCC1,53,-0.4,4,-2,-1.1,-5,0.6,-4,-1,3
Cc1n[nH]c(=O)c2c(NC(=O)COC(=O)c3ncc(Cl)c(Cl)c3Cl)oc(C)c12,-10,0.7,0,3,-1.3,2,2.7,8,nt,-10
CCn1c(=O)c2c(nc3n2CCN3c2ccccc2)n(C)c1=O,-7,0.6,16,8,-0.6,-2,9.4,-10,23,2
CC(OC(=O)Cc1c[nH]c2ccccc12)C(=O)c1ccccc1 (configuration not stated),1,0.5,-1,-6,-4.3,-11,-7.4,6,nt,nt
CS(=O)(=O)N1CCN(c2nc3ccccc3s2)CC1,0,-0.9,8,5,-0.1,-11,7.8,0,2,-6
O=C(CCOc1ccccc1)NNC(=O)c1ccccc1,15,-0.3,8,8,0.8,6,-5.5,1,nt,nt
O=C(O)c1ccc(N2C(=O)CSC2c2cccc([N+](=O)[O-])c2)cc1 (configuration not stated),1,-1.2,20,18,-0.7,-3,3.8,0,-3,-12

# More compounds follow:
SMILES,ALR H2O2 inh,Bfl-1 A1 inh,Ecoli rRNA inh,Ecoli rRNA inh OD600,Ecoli rRNA inh RFP,Beta cell apopt,LANA-H2A inh,B2AR ag,Calb FLC,T cruzi inh
O=C(CCNC(=O)c1ccc(Br)cc1)NCCCN1CCOCC1,-3,0.1,nt,nt,nt,0,51*,0,nt,nt
Cc1ccc(S(=O)(=O)NCC(C)NS(=O)(=O)c2ccc(C)cc2)cc1 (configuration not stated),-9,0.8,nt,nt,nt,1,1.1,0,24,-1
Cc1ccc(C)c(C(=O)CSc2nnnn2C(C)C)c1,nt,1.2,nt,nt,nt,-5,0.7,-5,-21,19
CC(C)OC(=O)CC1C(=O)NCCN1C(=S)NC(=O)c1cccs1 (configuration not stated),4,-0.2,12,8,0.7,-1,0.0,-1,-4,-17
CCc1ccc(OCC(=O)N2c3ccccc3CCc3ccccc32)cc1,-14,-0.1,nt,nt,nt,-2,-2.5,29,16,16
CCOC(=O)Cc1c(C)nc2c(-c3ccc(OC)cc3)c(C)nn2c1C,4,-0.7,nt,nt,nt,5,-1.7,10,-3,-8
Cc1nn(C)c(C(=O)Nc2ccn(Cc3c(F)c(F)cc(F)c3F)n2)c1[N+](=O)[O-],-5,0.2,nt,nt,nt,-2,-3.5,-73,1,-1
CCOc1ccc(NC(=S)Nc2cc(OC)c(Cl)cc2OC)cc1,13,0.4,-7,-3,0.4,2,-5.9,1,10,22

# Source: PubChem

# This is a subset; count on the stated rates, not on these rows.
